Screening results from PubChem BioAssay.
NPYLR7 agonist – activates Aedes aegypti NPYLR7 receptor | HEK293T NPYLR7/Galpha15, GCaMP6s calcium fluorescence | activation, % at 10 µM | 0.15% of 270,000 active; in the data active = activation above about 40%;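 also: 0% = vehicle and 100% = reference agonist at the receptor; some compounds past the cut are filed as inactive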
NPYLR7 agonist max-min – also measured in NPYLR7 agonist; calls as there; activation, %; measured here: Max-Min RFU normalised activation; some inactives read as strong as hits;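 span of the calcium signal over five minutes; 0% = vehicle and 100% = native peptide agonist; compound fluorescence can raise it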
Active calls of the source: *. A portion of the library; count on the stated rates, not on these rows.

SMILES	NPYLR7 agonist	NPYLR7 agonist max-min
CCN(C)C(=O)c1cnc(N2CCN(Cc3ccccc3C#N)C2=O)s1	-3	-5
CCOc1ccc(N(CC(=O)N2CCOCC2)S(C)(=O)=O)cc1	-2	-12
N[C@@H]1c2ccccc2C2(CCN(C(=O)CCCOc3ccccc3)CC2)[C@H]1O	4	0
CCC(=O)Oc1ccccc1C1OCC2C(C)C=C(C)C1C2C (stereo not drawn)	5	4
CCOc1ccc(S(=O)(=O)N2CCN(C(=O)c3ccc4ncsc4c3)CC2)cc1	0	39
Cc1nc(-c2ccc(C(F)(F)F)cc2)nc(N2CCN(C(=O)C34CC5CC(CC(C5)C3)C4)CC2)c1C(C)C	0	7
COc1ccccc1C1NC(=O)N(C)C2=C1C(=O)N(CC(=O)O)C2 (stereo not drawn)	-11	-10
COc1cccc(OCCCOc2ccc3ccccc3c2)c1	-9	8
O=C(O)C1C2C=CC3(CN(C4CCCC4)C(=O)C13)O2 (stereo not drawn)	-1	-2
CCN(Cc1cc2ccc(SC)cc2[nH]c1=O)CC1CCCO1 (stereo not drawn)	29	11
CC(C)(C)c1nc2cc(NS(=O)(=O)c3ccc(F)c(F)c3)ccc2o1	0	20
CC(C)(C)c1n[nH]c(C2CN(Cc3nnsc3Cl)CCO2)n1 (stereo not drawn)	11	5
Cc1nc(C(C)N(C)Cc2ccc(S(C)(=O)=O)cc2)c(C)s1 (stereo not drawn)	3	17
O=[N+]([O-])c1ccc(Nc2ncnc3ccccc23)cc1	-4	-7
O=C(Nc1ccc(F)c(Cl)c1)N1CCC2(CCNCC2)C1	8	3
CCOC(=O)C1(Cc2cccc(C(F)(F)F)c2)CCN(Cc2ccc(C(=O)OC)cc2)CC1	-9	-15
Cc1ccn2c(=O)nc(SCC(=O)N3CCN(c4ccccc4)CC3)nc2c1	0	-2
COc1ccc(Cn2cnc3cnc(-c4ccc(OC)c(OC)c4)cc32)cc1OC	13	3
O=C(N1C[C@H]2C[C@H](O)[C@@H](O)C[C@H]2C1)C1(c2ccc(F)cc2)CCOCC1	8	4
CN(CC1CCCCC1)C(=O)CNC(=O)c1ccc(Cl)cc1Cl	1	-1
Cc1nc(N2CCCCC2)cc(N2CCN(C(=O)c3ncccn3)CC2)n1	6	0
Cc1cn2c3c(=O)n(CCCO)c(=O)n(C)c3nc2n1-c1ccc(Oc2ccccc2)cc1	9	5
NC(=O)c1cnc2n1CCN(C(=O)c1ccccc1-n1cccn1)C2	11	6
Cc1ccc(-c2nc(N3CCN(C(=O)Nc4ccc(F)cc4F)CC3)c3ccc(Cl)cc3n2)cc1	13	20
CC(C)Sc1nc(N2CCCC2)c2cnn(CCNC(=O)c3cccc(F)c3)c2n1	2	-1

Arranged by heavy-atom count (smallest number first): some entries from above.
SMILES	NPYLR7 agonist	NPYLR7 agonist max-min
Cc1nc(C(C)N(C)Cc2ccc(S(C)(=O)=O)cc2)c(C)s1 (stereo not drawn)	3	17
COc1cccc(OCCCOc2ccc3ccccc3c2)c1	-9	8
NC(=O)c1cnc2n1CCN(C(=O)c1ccccc1-n1cccn1)C2	11	6
CCN(C)C(=O)c1cnc(N2CCN(Cc3ccccc3C#N)C2=O)s1	-3	-5

Remaining list, next part:
SMILES	NPYLR7 agonist	NPYLR7 agonist max-min
COc1ccc(S(=O)(=O)N2CCN(c3cc(C)nc(-c4cccc(C)c4)n3)CC2)cc1	16	12
Cc1ccc(Cn2nccc2N)o1	22	23
O=S(=O)(NCc1cccc2cccnc12)N1CCCCCC1	1	-3
O=C(c1ccc(=O)[nH]n1)N(CCO)CCSc1ccc(Cl)cc1	12	-6
Cn1c(=O)c2c(nc(CN3CCN(Cc4ccccc4)CC3)n2CCN2CCOCC2)n(C)c1=O	2	-1
CCC(O)CN(CCN1CCOCC1)Cc1ccc(C)cc1C (stereo not drawn)	-3	10
CON(C)C(=O)c1cc(-c2ccccc2)c(N2CCOCC2)s1	-1	-1
CCCc1cc(N2CCN(CCO)CC2)n2nc3nc(C)cc(C)c3c2n1	7	6
COc1ccc(OCC(=O)NCC(c2ccc3c(c2)CCN3C)N2CCN(C)CC2)cc1 (stereo not drawn)	10	5
C=CCNc1nc(C(=O)OCc2ccc(C(=O)OC)o2)cs1	2	1
CCC(c1nc2ccccc2c(=O)n1-c1ccccc1)N(CCc1ccccc1)C(=O)Nc1ccc(Cl)c(Cl)c1 (stereo not drawn)	23	21
Cc1cccc(NC(=O)c2c(N)c(C(=O)c3ccc(C)c(C)c3)n3ccccc23)c1	-6	-9
c1ccc2c(c1)CCN(Cn1cnc3ccccc31)C2	6	7
COC(=O)c1ccc(/C=C2\N=C(c3ccccc3F)OC2=O)cc1	-20	-22
CCN(C(=O)CSc1n[nH]c(-c2ccc(OC)cc2OC)n1)C1CC1	-3	-3
Cc1ccccc1Cn1cccc(C(=O)N(C)c2ccccc2)c1=O	15	6
COc1cccc(CCC2CCCN(C(=O)c3ccsc3)C2)c1 (stereo not drawn)	6	2
CC1(C)NC(=O)N(CC(=O)NC(c2ccccc2)c2cccs2)C1=O (stereo not drawn)	-7	-5
c1csc(-c2nc(Oc3ccc4c(c3)OCO4)c3ccccc3n2)c1	-2	-4
Cc1ccc(-n2c(-c3ccc(Cl)cc3)cc(C(=O)NCCN3CCCCC3)c2C)cc1	0	8
Cc1cnc(CNC(=O)C(C)c2cccs2)o1 (stereo not drawn)	-3	-4
CCOC(=O)C1CCCN(CC(=O)N2N=C(c3ccccc3Cl)CC2c2ccc(OC)cc2)C1 (stereo not drawn)	-8	-2
CC1CCCCC12NC(=S)N(c1ccc(Cl)cc1)N2 (stereo not drawn)	-1	-2
CN(Cc1ccccc1)c1ncccc1CNC(=O)C1CCC(=O)NC1 (stereo not drawn)	21	4
COC1CCN(S(=O)(=O)c2cccs2)CC(=O)N(C)c2ccccc21 (stereo not drawn)	-3	2

More results follow:
SMILES	NPYLR7 agonist	NPYLR7 agonist max-min
Cn1cc([N+](=O)[O-])c(C(=O)Nc2ccccc2)n1	-8	-20
COC(=O)CCc1c(C)nn(-c2ccc(C(=O)Nc3ccccc3Nc3ccccc3)cc2)c1C	-6	-13
CN(Cc1ccc2ncccc2c1)C(=O)c1ccc(C2CCNC2)cc1 (stereo not drawn)	2	-1
CC(NC(=O)/C=C/c1ccc(F)cc1)c1ccncc1 (stereo not drawn)	11	6
Fc1ccc(-c2nc(COc3ccccc3Br)co2)cc1	9	4
Cc1nc(SCC(=O)NCCC(C)C)c(C#N)c(C)c1C	-6	0
COc1cccc(CNC(=O)Cn2c(=O)n(CCc3ccccc3)c(=O)c3nccnc32)c1OC	1	0
Cc1ncc(CO)c(CN2CCC(C(O)c3cccs3)CC2)c1O (stereo not drawn)	18	13
COc1ccc(Oc2cc(N3CCN(C(=O)c4ccccc4OC)C(C)C3)ncn2)cc1 (stereo not drawn)	6	2
C[C@H]1[C@H](OC(=O)CCC(=O)O)O[C@@H]2O[C@]3(C)CC[C@H]4[C@H](C)CC[C@@H]1[C@@]24OO3	4	1
Cc1cc(Br)ccc1N1C(=O)/C(=C/c2ccc(Br)cc2)C=C1c1ccccc1	-1	2
c1nc(N[C@H]2COC[C@@H]2N2CCCCC2)c2c3c(sc2n1)CNCC3	7	4
COc1cc2c(cc1OC)CN(c1cc(C(=O)NCCCOC(C)C)c3ccccc3n1)CC2	8	4
Cc1occc1C(=O)N1CCC(n2nccc2NC(=O)CCOc2ccccc2)CC1	1	-4
O=C(c1ccco1)N(CCCN1CCOCC1)c1nc2c(F)cc(F)cc2s1	5	-2
Oc1cccc(-c2nc3ccc(Br)cn3c2NCc2ccccc2)c1	9	8
Cc1ccc2cc(CN(C)Cc3cnn(C)c3C)c(N3CCOCC3)nc2c1	0	-4
O=C(Oc1cc2ccccc2cc1OC(=O)N1CCCCC1)N1CCCCC1	9	5
COC(=O)c1ccc(Cn2nc(C)c([N+](=O)[O-])c2C)o1	2	2
O=C(c1csc(-c2cccs2)n1)N1CCN(c2ccccc2F)CC1	6	10
CCOC(=O)C1=CC2(SC=C(C(=O)OCC)S2)C2=C(S1)C(C)(C)Nc1cc(C)c(C)cc12 (stereo not drawn)	0	0
Cc1cc(C)n(C2CCN(Cc3ncc[nH]3)C2)n1 (stereo not drawn)	-3	7
Cc1cc(O)c(CN2CCOCC2)c2c1C(=O)/C(=C/c1cc3cc(Br)ccc3o1)O2	14	15
Cc1ccc(CCC(=O)N2CCN(S(=O)(=O)c3ccc(Cl)s3)CC2)cc1	17	12
O=C(c1ccccc1SC(F)F)N1CCN(c2ncnc3c2nnn3-c2ccccc2)CC1	-6	-14

Single records (already shown). Order of values: NPYLR7 agonist, NPYLR7 agonist max-min
Record of COc1cccc(CNC(=O)Cn2c(=O)n(CCc3ccccc3)c(=O)c3nccnc32)c1OC : 1, 0
Record of CN(Cc1ccc2ncccc2c1)C(=O)c1ccc(C2CCNC2)cc1 (stereo not drawn) : 2, -1

Next section.
SMILES	NPYLR7 agonist	NPYLR7 agonist max-min
Cc1cccc(CC(=O)NCc2ccc3c(c2)cc(C)n3C)c1	5	7
COc1ccc(OC)c(C2CC(=O)Nc3c2c(C)nn3-c2ccc(Cl)nn2)c1 (stereo not drawn)	-2	-3
Cc1nn(CC(C)C)c(C)c1CC(=O)Nc1ccccc1F	5	3
O=C(Nc1ccc(Cl)cn1)c1[nH]ncc1[N+](=O)[O-]	1	-1
CCOc1ccc(N2CC(NC(=O)NCCn3ccc4ccccc43)CC2=O)cc1 (stereo not drawn)	5	1
COC(=O)c1c(C)[nH]c(-c2csc(-c3cccs3)n2)c1C	2	9
COc1cccc(OC)c1-c1ccc2nc(CO)[nH]c2c1	-5	-8
COc1cccc(-c2cc(C(=O)N3CCc4ccccc4C3)nc3cc(-c4ccccc4)nn23)c1	19	20
CNC(=O)[C@H]1C[C@]2(CCCCN(C)C2=O)N(C(=O)CCc2ccccc2)[C@H]1c1ccco1	4	13
Cc1[nH]cnc1-c1nccn1Cc1cc2ccc(F)cc2[nH]c1=O	-2	-5
CC(=O)Nc1ccc(-c2c(-c3ccccc3)ncn2CC2CCCO2)cc1 (stereo not drawn)	20	2
CCCn1ccnc1CN1CCN(c2ncccc2C)CC1	-3	-3
COc1cccc(C(C)N(C)C(=O)c2cn(CCCc3ccccc3)nn2)c1 (stereo not drawn)	-7	-7
CCc1ccc(NC(=O)NCCNc2ccc(Nc3ccncc3)nn2)cc1	15	3
NC(=O)CC1CCN(C(=O)c2cncn2-c2ccccc2)CC1	-1	0
CC1Oc2c(cccc2C(=O)Nc2cccc(C(F)F)c2)NC1=O (stereo not drawn)	-9	-9
O=C(NCCc1cccs1)N1CCN(S(=O)(=O)c2ccccc2Cl)CC1	-4	-4
CCOC(=O)C1(CCOc2ccccc2)CCN(C2CCN(C(C)=O)CC2)CC1	6	9
CC(C)CN(C(=O)CN1CCCCCCC1)c1c(N)n(CC(C)C)c(=O)[nH]c1=O	-3	-8
CC(=O)Nc1ccc(C(=O)CN2C(=O)SC(=Cc3ccc(Cl)cc3)C2=O)cc1	25	7
Cc1c(Cl)cccc1N1CCn2c1nc1c2c(=O)n(CCN2CCOCC2)c(=O)n1C	-6	-5
O=C(O)c1ccc(N2C(=O)/C(=C/c3ccccc3C(=O)O)SC2=S)cc1	3	0
COc1ccccc1Nc1nc2nonc2nc1Nc1ccc(C)c(Cl)c1	-6	-9
O=S(=O)(c1ccc(F)cc1)N1CCCC1	1	6
CNC(=O)c1cnn(C)c1N	-3	-10

Next results
SMILES	NPYLR7 agonist	NPYLR7 agonist max-min
CCOc1ccc(/C=C2/SC(=S)N(CC(=O)O)C2=O)cc1	2	0
COc1ccc(-c2cc(C(=O)NCCc3ccc(Cl)cc3Cl)n3nc(C(C)(C)C)cc3n2)cc1	-20	-5
Cc1c(C)n2c3c(=O)[nH]c(=O)n(C)c3nc2n1CCN1CCN(c2cccc(Cl)c2)CC1	7	14
Cc1cc(C(C#N)C(=O)C(C)Oc2ccc(F)c(F)c2)nc(C)n1 (stereo not drawn)	-1	10
Cc1nc(C)c(C(C)NS(=O)(=O)N2CCCCCC2)s1 (stereo not drawn)	-2	-3
CC(C)c1n[nH]c(=S)c2c1cnn2-c1ccccc1	-4	-6
CC(C)Cn1c(SC2CCCCNC2=O)nc2ccc(Cl)cc2c1=O (stereo not drawn)	-2	-3
CCC(C)c1csc(NC(=O)c2sccc2S(C)(=O)=O)n1 (stereo not drawn)	8	5
Cn1cc(N2CCC(NC(=O)c3ccc4[nH]c(=S)oc4c3)C2)cn1 (stereo not drawn)	7	3
COc1ccc(CN(Cc2ccsc2)Cc2ccco2)c(Cl)c1O	-4	-7
COCCn1c(O)c(C(C)=NC2CCCCCC2)c(=O)[nH]c1=S	5	0
COCCN(Cc1csc(COc2ccccc2C(C)C)n1)S(=O)(=O)c1ccc(C)cc1	-3	4
Cc1cc(C)c(S(=O)(=O)Nc2cc(Sc3ncn[nH]3)c(O)c3ccccc23)cc1C	-4	-7
Cc1cc(C(=O)N2Cc3cnc(CC(C)C)nc3C2)c2c(C)noc2n1	6	4
COc1ccc(NS(=O)(=O)c2ccc(Cl)cc2)c(C(=O)NCc2ccccc2)c1	1	0
CCSc1nc(CC(=O)NCCS(=O)(=O)N(C)C)cs1	13	4
CCOC(=O)c1sc2nc(C(C)OC(=O)C3=COCCO3)[nH]c(=O)c2c1C (stereo not drawn)	9	8
CC(C)Cn1c(=O)c2c(nc3n2CC(C)CN3c2ccc(Cl)cc2)n(C)c1=O (stereo not drawn)	7	7
COCCN(Cc1nccn1Cc1ccc(Cl)c(Cl)c1)C(=O)C1CC1	4	7

Entries listed so far containing a nitro group on carbon, in the order listed:
SMILES	NPYLR7 agonist	NPYLR7 agonist max-min
O=[N+]([O-])c1ccc(Nc2ncnc3ccccc23)cc1	-4	-7
Cn1cc([N+](=O)[O-])c(C(=O)Nc2ccccc2)n1	-8	-20
COC(=O)c1ccc(Cn2nc(C)c([N+](=O)[O-])c2C)o1	2	2
O=C(Nc1ccc(Cl)cn1)c1[nH]ncc1[N+](=O)[O-]	1	-1
